Screens: PubChem BioAssay, National Center for Advancing Translational Sciences (NCATS)
nsP2pro primary = inhibitors of chikungunya virus nsP2 protease; Q8JUX6; FRET peptide cleavage, nsP2pro, fluorescence 1 h; Potency, µM (top dose mostly 24.9 µM), inactives show at the top dose activity change, negative = inhibition, hits mostly inhibitors; 1.1% of 31,000 active; active means well fitted inhibition curve with a large enough effect; inconclusive means small, poorly fitted or top-dose-only effect; inactive means no such curve, though single readings can be large or run the other way; note: nearly all actives have a fitted effect of over 60% in size; a reference inhibitor and vehicle were the controls
* = called active by the depositor; i = inactive; ? = inconclusive; [ ] = remark or other dose. % is set by controls: 0 for no effect and ±100 for the full control effect; potency is the fitted concentration of half-maximal effect. The list is partial, so the mix of outcomes need not match the whole.

SMILES	nsP2pro primary
Cc1cc(C)nc(NC(=S)N2CCN(c3ncnc4sccc34)CC2)c1	-3.5%
CCN(C(=O)CN1C(=O)COc2ccc(S(=O)(=O)N3CCOCC3)cc21)c1ccc(OC)cc1	-14.1%
Fc1ccc(Nc2nc(-c3ccncc3)nc3ccccc23)cc1F	i
CCCNC(=O)C1CCC(Cn2c(=O)c3sccc3n(Cc3ccccc3C)c2=O)CC1 (stereo not drawn)	-19.2%
COc1ccc(C2(C(=O)N3CCOCC3)CCOCC2)cc1	0.8%
Cc1cc2c(cc1C1(c3ccc(C(=O)O)cc3)CC1)C(C)(C)CCC2(C)C	-4.0%
Cc1ccc(C)c(Cn2c3ccccc3c3cnn(CC(=O)NCCC4=CCCCC4)c(=O)c32)c1	-14.8%
CCOC(=O)c1c(/C=N/Nc2ccccc2)c2sc(C)cc2n1C	-8.6%
COc1cccc(CN2CCCC(O)(CN3CCC(C)CC3)C2=O)c1 (stereo not drawn)	i
CCOC(=O)C1CCN(C(=O)c2cc3sc(C)cc3n2C)CC1	-14.8%
O=c1c(-c2ccccc2)c1-c1ccccc1	21.4%
O=C(Nc1ccc2nc(SCC(=O)N3CCOCC3)sc2c1)c1ccc(F)cc1	-14.8%
CCOC(=O)N1CCC(NC(=O)c2ccc3c(c2)N(Cc2ccccc2)C(=O)c2ccccc2S3(=O)=O)CC1	3.6%
CCC(C)NC(=O)c1cn(CC)c2ccc(S(=O)(=O)N3CCc4ccccc4C3)cc2c1=O (stereo not drawn)	-6.9%
Cc1cnn(CCC(=O)N2CCC3(CCNCC3)CC2)c1	-10.6%
CN[C@H](CC(=O)O)C(=O)O	?
Cc1nn(CCC(=O)N2CCN(c3ccccc3F)CC2)c(C)c1S(=O)(=O)N1CCCC1	-12.7%
CC1(C)C(=O)N(Cc2ccccc2F)[C@H]2CN(C3CCOCC3)C[C@H]2[S+]1(=O)[O-]	i
Cc1ccc(C)c(OCc2nc3ccccc3n2C)c1	-9.6%
N#Cc1ccc(N2N=C3c4ccc(C(=O)O)cc4CC[C@@H]3[C@@H]2C2CCCC2)cc1Cl	78.3%[activator]

3 entries already listed, ordered by formula weight, rising.
SMILES	nsP2pro primary
O=c1c(-c2ccccc2)c1-c1ccccc1	21.4%
CC1(C)C(=O)N(Cc2ccccc2F)[C@H]2CN(C3CCOCC3)C[C@H]2[S+]1(=O)[O-]	i
Cc1nn(CCC(=O)N2CCN(c3ccccc3F)CC2)c(C)c1S(=O)(=O)N1CCCC1	-12.7%

(listing goes on)
SMILES	nsP2pro primary
O=C1CC2(CCN(CC3CCOCC3)C2)Nc2ccccc2N1 (stereo not drawn)	-25.2%
C/C=C(\C)C(=O)OC1C2C3(C)CCC(OC4CC(OC)C(OC5OC(C)C(O)C(OC)C5O)C(C)O4)CC3CCC23OC32CCC(C(C)=O)C2(C)C1OC(=O)/C(C)=C/C (stereo not drawn)	2.2%[5.1 µM]
Cc1cccc(-c2nnc(SCC(=O)NC3CCCCC3)o2)c1	-18.1%
COC(=O)c1c(-c2ccc(Cl)cc2)noc1N1CCN(c2cccc(C(F)(F)F)c2)CC1	-5.1%
FC(F)(F)c1ccccc1-c1nc(NCc2ccc(-c3ccc4c(c3)OCO4)cc2)c2ccccc2n1	-8.4%
CC(C)C[C@H](NC(=O)[C@@H]1C[C@@H](n2nnc(C(N)=O)c2C(N)=O)CCN1C(=O)c1cnccn1)C(N)=O	3.3%
CC(=O)NC(c1cccs1)c1cc(F)c2cccnc2c1O (stereo not drawn)	4.0%
CC1CCCN(C(=O)CN2CCCc3nc(-c4ccccc4)ncc3C2=O)C1 (stereo not drawn)	i
COC(=O)CC(NC(=O)C(C)NC(=O)C(NC(=O)OCc1ccccc1)C(C)C)C(=O)CF (stereo not drawn)	?
CN1CC(=O)N(C2CCNC2)Cc2c(NCCc3cccc(F)c3)ncnc21 (stereo not drawn)	-24.5%
COCCN(CCOC)c1nc(C)nc2c1nc(-c1ccccc1)n2CCN1CCCC1	i
Cc1cn2c(=O)cc(COc3cccc(NC(=O)c4ccccc4C)c3)nc2s1	-22.9%
COc1ccccc1OCCN1C(=O)C2(CCOCC2)CC1c1nnnn1C(C)(C)C (stereo not drawn)	i
Cc1ccccc1OCC(=O)OCc1cc(=O)n2nc(-c3cccs3)sc2n1	-12.7%
COc1ccc(NC(=O)CN(C)S(=O)(=O)c2ccc3[nH]c4c(c3c2)CCCC4)cc1OC	-14.4%
O=C(Nc1ccccc1)N1CCCC(C(=O)N2CCC(N3CCOCC3=O)CC2)C1 (stereo not drawn)	-6.0%
Cc1ccc2nc(N3CCN(C(=O)C4COc5ccccc5O4)CC3)sc2c1 (stereo not drawn)	-22.6%
CCOC(=O)C1CCN(C(=O)C(C)(C)NC(=O)Nc2ccc(Oc3ccccc3)cc2)CC1	1.2%
COc1ccc(CNC(=O)c2cc(-c3cccs3)nc3ccccc23)c(OC)c1	-29.2%
Cc1ccc(NS(=O)(=O)c2ccc3c(c2)CCO3)cc1C	1.0%
O=c1[nH]c(SCc2ccc(F)cc2)nc2c1CCCC2	-9.6%
O=C(c1ccc(OCCN2CCCCC2)cc1)c1c(-c2ccc(O)cc2)sc2cc(O)ccc12	?
CCOC(=O)c1ccccc1NC(=O)COC(=O)CC(C)(C)CC1=NS(=O)(=O)c2ccccc2N1	-7.5%
Oc1c(CNc2ccccc2)cc(COCc2ccccc2)c2cccnc12	?
Cn1nnnc1Sc1ncnc2scc(-c3cccc(Br)c3)c12	4.3%
COc1cccc([C@@H]2CCN(Cc3[nH]c4ccccc4c3C)C[C@H]2O)c1	-2.9%
CCOC(=O)c1cc2c(=O)n3ccccc3nc2n(Cc2ccco2)c1=NC(=O)c1ccccc1Br	-24.6%
CC(=O)Nc1ccc(NC(=O)c2nc(S(=O)(=O)Cc3ccc(F)cc3)ncc2Cl)cc1	?
CC(=O)O[C@H]1C(=O)[C@]2(C)C(O)C[C@H]3OC[C@@]3(OC(C)=O)[C@H]2[C@H](OC(=O)c2ccccc2)[C@]2(O)C[C@H](O)C(C)=C1C2(C)C (stereo partly drawn)	28.6%[10 µM]
Cc1cccc2c1CC[C@H](CN1CCC(c3c(Cl)cccc3Cl)CC1)C[C@@H]2O	26.1%
COc1ccccc1C(=O)N1CCC(Cc2nncn2-c2ccccc2)CC1	2.9%
COc1cc2nc(N3CCC(N4CCCCC4)CC3)nc(NC3CCCCCC3)c2cc1OC	26.7%
CN1CCN(C(=O)C2CCCCC(=O)N2)CC1 (stereo not drawn)	i
O=P(c1ccccc1)(c1ccccc1)c1cnc2ccccn12	i
CCCCc1ccc(C(=O)Nc2ccc(S(=O)(=O)Nc3nccs3)cc2)cc1	-5.2%
CC1=C(CO)C2(C)CCCC(C)(C)C2C(O)C1O (stereo not drawn)	-10.1%
COc1ccc(NC(=O)CN2C(=O)C(C)(C)c3cc(S(=O)(=O)N4CCCCC4)ccc32)cc1Cl	-17.4%
Cc1ccc(CNC(=O)C(=O)NCC(c2cccs2)S(=O)(=O)c2ccccc2)cc1 (stereo not drawn)	-21.5%
O=C(Nc1ccc2c(c1)OCO2)Nc1nnc(-c2ccncc2)s1	i
CC(Sc1ncc(S(=O)(=O)c2ccc(C(C)C)cc2)c(N)n1)C(=O)Nc1ccccc1 (stereo not drawn)	-16.5%
Cc1ccc(C2=Nc3ccccc3N=C(c3ccc(F)cc3)C2)c(O)c1	-28.2%
NC(=O)C1CCN(c2nc(-c3ccc4ccccc4c3)cs2)CC1	i
CCOC(=O)c1ccc(NC(=O)c2c(-c3c(F)cccc3Cl)noc2C)cc1	-6.4%
CCc1ccc(CNC(=O)c2ccc(CSc3nc4ccncc4n3Cc3ccccc3)cc2)cc1	26.9%
CC(=O)N1c2ccccc2C(C)(c2ccc(C)cc2)CC1(C)C (stereo not drawn)	-12.5%
Cc1noc(C)c1-c1cc2c(cc(C)n2C)c(NCc2ccncc2)n1	?
CCOc1ccc(-c2cc3c(=O)n(Cc4nc(-c5ccccc5OCC)oc4C)ccn3n2)cc1Cl	-5.8%
O[C@@H]([C@H](O)[C@@H](O)CBr)[C@@H](O)CBr	-5.4%
CC(C)c1c(O)ccc2c1CC[C@H]1C(C)(C)CCC[C@]21C	5.7%
CCC(C)n1cc(C)c2c(C(=O)NCc3c(C)cc(C)[nH]c3=O)cc(-c3ccc(N4CCNCC4)nc3)cc21 (stereo not drawn)	63.7%[activator]

More compounds follow:
SMILES	nsP2pro primary
O=C(NC1CCCCC1)c1ccc(Cn2c(SCc3ccccc3F)nc3cccnc32)cc1	21.4%
CC(C)c1cccc(O)c(=O)c1	-16.7%
COc1cc(/C=C/C(=O)OCC2OC(OC3(CO)OC(CO)C(O)C3O)C(O)C(O)C2O)ccc1O (stereo not drawn)	-10.2%[10 µM]
Cc1csc(CNc2ncnc3ccc(-c4ccc(C(=O)O)o4)cc23)n1	-11.0%
CCCCC(=O)O[C@H]1CC[C@H]2[C@@H]3CCc4cc(O)ccc4[C@H]3CC[C@]12C	-6.8%
C[C@@H]1O[C@@H](O[C@H]2[C@H](O)[C@@H](O)[C@H](O[C@H]3[C@H](O[C@H]4CC[C@@]5(C)C(=CC[C@@H]6C5CC[C@]5(C)[C@@H]7[C@H](C[C@@H]65)O[C@]5(CC[C@@](C)(CO[C@@H]6O[C@H](CO)[C@@H](O)[C@H](O)[C@H]6O)O5)[C@H]7C)C4)O[C@H](CO)[C@@H](O)[C@@H]3O)O[C@@H]2CO)[C@H](O)[C@H](O)[C@H]1O (stereo partly drawn)	-1.1%[5.1 µM]
CC(C)c1cccc(C(C)C)c1NS(=O)(=O)c1cccs1	-11.0%
CC1(C)[C@H]2CC[C@@H](CNC(=O)C3CC3)[C@@H]1C2	3.1%[39.2 µM]
CCC(C)NC(=O)CSc1nc2c(sc3ccccc32)c(=O)n1Cc1ccccc1Cl (stereo not drawn)	-20.6%
CCOC(=O)c1noc2nc(C)n(Cc3ccc([N+](=O)[O-])cc3)c(=O)c12	-21.5%
Cc1cc(Cl)ccc1COc1ccnn1-c1cc(C(=O)O)ccn1	1.6%
Cc1cccc(OCC(=O)Nc2ccc3nc(Nc4cccc(C(F)(F)F)c4)cc(C)c3c2)c1	-3.2%
COc1ccc(Cn2c(=O)[nH]c3cc(C(=O)N4CCN(c5cc(Cl)ccc5C)CC4)ccc3c2=O)cc1	-16.8%
COc1ccc(C(=O)N2CCCCCNC(=O)[C@@H]3CCC[C@@H]32)cn1	1.6%
C=C1CC23CC1CCC2C12OC(=O)C(C)(CCC1O)C2C3C(=O)O (stereo not drawn)	?
COc1ccc(Nc2nc(-c3ccncc3)nc3ccccc23)cc1F	-0.4%
CC(NC(=O)Cc1ccc(NC(=O)N2CCSc3ncccc32)cc1)c1ccccc1 (stereo not drawn)	-18.9%
N#Cc1c(O)c2c(-c3ccc(-c4ccccc4O)cc3)csc2[nH]c1=O	?
CCOc1ccc(C(=O)N2CCC(c3nnc(-c4ccccc4OC)o3)CC2)cc1	-14.4%
COc1ccc(NS(=O)(=O)c2ccc(C)cc2)c(C(=O)Nc2nc(-c3ccccc3)cs2)c1	i
Cc1ccc(OCCn2c(CCNC(=O)c3cccc(N)c3)nc3ccccc32)cc1	-8.6%
O=C(O)[C@H]1C2CCC(CC2)[C@@H]1Nc1nc(-c2c[nH]c3ncc(F)cc23)ncc1F	?
Cc1cc(N(CCO)Cc2ccccc2)n2nc(-c3ccc(C(C)(C)C)cc3)nc2n1	-17.6%
O=C(CN1C(=O)N/C(=C\c2cn(-c3cccc(C(=O)O)c3)cn2)C1=O)Nc1ccccc1Cl	-7.3%
CN(CC1CCOC1)C(=O)NCc1ccc(F)cc1 (stereo not drawn)	-0.4%
Cc1ccc(Cl)cc1N1CCN(C(=O)c2ccc3c(c2)N(Cc2ccccc2F)C(=O)c2ccccc2S3=O)CC1 (stereo not drawn)	?
N#Cc1ccc(C(=O)NCC(=O)OC(C(=O)Nc2cc(C(F)(F)F)ccc2Cl)c2ccccc2)cc1 (stereo not drawn)	-3.3%
CC1(C(=O)N2CCCC(CCc3ccc(F)c(F)c3)C2)CC1 (stereo not drawn)	-1.9%
CCN(CC)S(=O)(=O)c1ccc2c(c1)N(CC(=O)Nc1c(C)cc(C)cc1C)C(=O)CS2	-15.4%
CCNc1nc(C#N)nc2c1ncn2-c1cc(F)cc(F)c1	i
C=C1CCC2C(C)(C)CC(O)CC2(C)C1CCC(C)CC(=O)O (stereo not drawn)	31.8%
CC(=O)c1cccc(Nc2nn(-c3ccc(OC(F)(F)F)cc3)nc2C(C)=O)c1	-15.8%
O=C(NCc1cccc(Cl)c1)c1ccc2oc(-c3cccnc3)nc2c1	-1.5%
COc1ccc(CN2C[C@H]3CN(S(=O)(=O)c4ccc(C)cc4)CCN3C2=O)cc1	-13.9%[39.2 µM]
Cc1cc(C)c(NC(=O)CSc2ccc(-c3ccccn3)nn2)c(C)c1	-12.4%
N#CN/C(=N\c1nnc(-c2ccncc2)s1)Nc1ccc(F)c(C(F)(F)F)c1	3.7%
CN(C)[C@@H]1[C@@H](NS(=O)(=O)c2cccc3c2OCCO3)[C@H]2CCO[C@H]21	i
CC(=O)NC1CC2(CCN(C(C)=O)CC2)Oc2ccccc21 (stereo not drawn)	-13.9%[39.2 µM]
COc1cc(F)ccc1-c1nc(-c2c(C)noc2C)cc2cc(C)oc12	i
Cc1c(Cl)cccc1NC(=O)c1ccc(C(=O)Nc2cccc(Cl)c2C)cc1	-25.8%
CC1=C(C(=O)O)N2C(=O)[C@@H](NC(=O)[C@H](N)C3=CCC=CC3)[C@@H]2SC1	-22.7%
